PINK1 modulator = modulators of PINK1 expression. PINK1 immunofluorescence, high-content cytometry, 24 h. Potency, µM (doses to about 76.6 µM), inactives show at the top dose activation (PINK1 increase), most hits filed as activators. 410,000 compounds, 0.2% hits. AID 624263; active = well fitted activation curve with a large enough effect; inconclusive = small, poorly fitted or top-dose-only effect; inactive = flat fitted curve, though single readings scatter; cell line not stated here;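 further: potency means the concentration at half of the fitted maximal effect; % of control where 0% means no effect; nearly all actives have a fitted effect of over 65% in size; a mitochondrial uncoupler was the plate control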
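Stable cell line, 250 cells/well, 12 h attachment; compounds pinned at 5 concentrations, 24 h; CCCP control. Fixed with nuclear dye, primary antibodies 12 h at 10 degrees C, secondary plus cell stain; laser-scanning cytometer read.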
Six1-Eya2 inh = inhibitors of human Six1/Eya2 interaction. AlphaScreen GST-Six1/His-Eya2 binding, biochemical; hits give low values; control for the full effect not named in the record. Q15475+O00167. 360,000 compounds, 0.56% hits. activity change, % (no concentration beside the values). AID 651725; in the data active = activity change below about -65%; inconclusive = about -30% to -65%; inactive = above about -30%; further: on the % scale 0 is the no-effect control and ±100 the full control effect
Target sequence (O00167 whole entry, looked up): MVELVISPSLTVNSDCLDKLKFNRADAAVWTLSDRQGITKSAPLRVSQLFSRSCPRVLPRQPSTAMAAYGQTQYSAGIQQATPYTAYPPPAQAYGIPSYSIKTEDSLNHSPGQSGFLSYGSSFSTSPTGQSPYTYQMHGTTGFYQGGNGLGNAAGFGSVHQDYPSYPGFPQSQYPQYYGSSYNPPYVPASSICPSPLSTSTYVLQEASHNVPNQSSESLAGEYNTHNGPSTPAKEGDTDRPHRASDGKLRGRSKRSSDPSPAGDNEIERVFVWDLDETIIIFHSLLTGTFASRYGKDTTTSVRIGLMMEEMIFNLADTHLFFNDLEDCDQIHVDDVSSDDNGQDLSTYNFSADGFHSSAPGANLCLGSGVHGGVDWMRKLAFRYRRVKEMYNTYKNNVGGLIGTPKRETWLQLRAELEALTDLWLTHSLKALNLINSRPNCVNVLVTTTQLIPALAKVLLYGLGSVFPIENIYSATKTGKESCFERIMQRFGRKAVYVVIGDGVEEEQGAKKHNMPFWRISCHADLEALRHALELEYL
Target sequence (Q15475 whole entry, looked up): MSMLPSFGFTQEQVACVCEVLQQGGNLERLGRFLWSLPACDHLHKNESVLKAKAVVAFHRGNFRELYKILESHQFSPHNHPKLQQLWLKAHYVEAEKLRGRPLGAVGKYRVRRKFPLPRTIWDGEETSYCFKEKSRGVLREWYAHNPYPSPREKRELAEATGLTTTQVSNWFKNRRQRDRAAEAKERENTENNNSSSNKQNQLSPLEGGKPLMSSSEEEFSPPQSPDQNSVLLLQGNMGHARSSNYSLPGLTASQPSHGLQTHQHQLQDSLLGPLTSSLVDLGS
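Six1/Eya2 binding was read as AlphaScreen signal after compounds were pinned into GST-Six1 plus His-tagged Eya2 (5X stock 250/500 nM) in pH 8.0 Tris/NaCl/TCEP buffer, beads added, then incubated 1 h, 37 C, dark.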
D2 agonist = human D2 receptor agonism in beta-arrestin assay. DiscoveRx PathHunter D2 beta-arrestin, luminescence, 90 min; 100% = 57 uM dopamine signal. 360,000 compounds, 0.084% hits. activation, % (concentration not given with the values). AID 624465; in the data active = activation above about 40%; inconclusive = about 15% to 40%; inactive = below about 15%; further: the text of the record calls up to 30% inactive
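Agonist mode: compounds alone added to overnight-plated D2 PathHunter cells for 90 min at 37 C, with 57 uM final dopamine (EC100) defining full response. Beta-arrestin recruitment detected by chemiluminescent reagent, read after 1 h at ambient temperature.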
CtBP-E1A inh = CtBP/E1A binding inhibition | AlphaScreen GST-E1A/His-CtBP binding, 1536-well; hits give low values; control for the full effect not named in the record | activity change, % (test concentration not listed) | 340,000 compounds, 0.49% hits; in the data active means activity change below about -65%; inconclusive means about -30% to -65%; inactive means above about -30%; further: on the % scale 0 is the no-effect control and ±100 the full control effect
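GST-E1A and His-tagged CtBP (125 nM each as 5X stock) were preincubated with pin-transferred compound for 2 h at 37 °C in the dark, then glutathione donor and nickel acceptor beads were added for 1 h before AlphaScreen reading.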
TRPV1 potentiator = potentiators of human vanilloid receptor 1 (TRPV1). Q8NER1. TRPV1-expressing cells, Fluo-8 calcium influx, capsaicin EC20 potentiation; host cell line not named in the record; control for the full effect not named in the record. potentiation, % at 8.33 µM. 320,000 compounds, 0.02% hits; active means potentiation above 80%; inconclusive means 30% to 80%; inactive means below 30%; further: 0% is about no effect
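TRPV1-expressing cells were cultured overnight at 35.5C and loaded with Fluo-8 calcium dye for 40 to 90 min at room temperature. After a 10 s baseline, compound was added and calcium influx was read kinetically for 3 min (ex 480/em 520 nm).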
Sfp inh = blocks B. subtilis Sfp PPTase activity; AID 1490; Q9F4F7; 310,000 compounds, 3.5% hits; Potency, µM, for the others: max response, negative = inhibition, most hits filed as inhibitors; Biochemical Sfp PPTase activity, qHTS; active means well fitted inhibition curve with a large enough effect; inconclusive means small, poorly fitted or top-dose-only effect, or another doubt; inactive means no such curve, though single readings can be large or run the other way;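 further: the enzyme is Sfp with the accession as filed and its product quenches rhodamine fluorescence; potency means the concentration at half of the fitted maximal effect; 0% = enzyme reaction without inhibitor and -100% = no enzyme wells; top concentration of the series not given in the record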
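Buffer: 50 mM Hepes-Na pH 7.6, 10 mM MgCl2, 0.01% Nonidet P-40, 0.01% BSA. Enzyme 15 nM, pre-exposed to compound 15 min; substrates then added and fluorescence change tracked over 30 min.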
D2 PAM = human D2 receptor positive allosteric modulation. AID 624464. potentiation, % (concentration not given with the values). DiscoveRx D2 beta-arrestin cells, luminescence, 90 min; 100% = 57 uM dopamine signal. 360,000 compounds, 0.23% hits. P14416; active = potentiation of 50% or more; inconclusive = 30% to 50%; inactive = 30% or less;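 further: tested on top of an EC20 dose of dopamine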
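D2 cells co-treated with compound plus 50 nM dopamine (EC20) for 90 min at 37 deg C to detect potentiation. Beta-arrestin recruitment was read as enzyme-fragment luminescence after 1 h at ambient temperature. Full response was set by 57 uM dopamine.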
The depositor's hits bear a star; ? = inconclusive; nt = not tested or not shown; [ ] = dose if it differs, or a comment.

no.	structure	PINK1 modulator	Six1-Eya2 inh	D2 agonist	CtBP-E1A inh	TRPV1 potentiator	Sfp inh	D2 PAM
1	CCCSC1=C(C#N)C(c2ccc(O)c(OC)c2)CC(=O)N1 (centres undefined)	1.9%	-5	-4.4	-1	-2	10%	-2
2	Cc1ccccc1Nc1nc(N)nc(COC(=O)c2ccccc2)n1	2.1%	-11	-3.0	-11	14	6%	-17
3	Nc1cc(=O)[nH]c(SCC(=O)Nc2ccc(F)c(Cl)c2)n1	28%[38.3 µM]	-2	-5.3	-1	13	-2%	-18
4	Cc1cccc2cc(COC(=O)c3cccc([N+](=O)[O-])c3)c(=O)[nH]c12	3.0%	4	-4.1	2	1	9%	-3
5	COc1ccc(S(=O)(=O)N(C)C[C@@H]2Oc3c(NS(C)(=O)=O)cccc3C(=O)N([C@@H](C)CO)C[C@H]2C)cc1	-0.8%	-1	-1.4	9	nt	nt	nt
6	c1ccc2c(C[n+]3csc4ccccc43)cccc2c1	?	-7	3.2	-2	2	45µM*	0
7	CCOC(=O)c1nn(-c2ccccc2)c(=O)cc1SC(C)C	2.2%[38.3 µM]	5	1.3	2	3	10%	-1
8	CCOc1cc(C(=O)N2CCC(CC3CC(c4ccc(Cl)cc4)=NO3)(C(=O)NCC3CCCCC3)CC2)cc(OCC)c1OCC (centres undefined)	0.1%	-6	4.2	0	12	19%	-12
9	O=C(CNC(=O)c1ccc(Br)cc1)OCC(=O)c1ccccc1	0.8%	0	-3.0	12	-10	8%	-20
10	COC(Cc1ccccc1N1CCCC1=O)OC	-0.2%	2	0.4	5	-11	7%	-14
11	COc1cccc(C2C(C(C)=O)=C(O)C(=O)N2Cc2ccco2)c1 (centres undefined)	-2.7%	7	-2.5	3	-12	-18%	-1
12	CN(C(=O)COC(=O)CCCc1c[nH]c2ccccc12)c1c(N)n(Cc2ccccc2)c(=O)[nH]c1=O	0.8%	-1	3.0	-2	?	nt	-1
13	CC(=O)c1ccc(N(CC(=O)Nc2cc(C)on2)S(=O)(=O)c2ccc(C)cc2)cc1	0.5%	-6	-3.1	3	nt	nt	-19
14	CCOC(=O)NC(=O)CSc1nnnn1-c1ccccc1	nt	2	-3.8	8	6	7%	-16
15	COc1ccc(OC)c(NC(=O)CSc2nc3[nH]c(=O)cc(O)c3s2)c1	1.9%	-9	1.6	nt	11	nt	6
16	Cc1ccc(S(=O)(=O)CCC(=O)OCC(=O)c2cc(C)ccc2C)cc1	2.0%	6	-0.2	1	0	nt	9
17	COc1ccc(N(CC(=O)NCc2cccnc2)S(=O)(=O)c2ccccc2[N+](=O)[O-])c(OC)c1	0.4%	-1	-21	1	-8	10%	-23
18	CNNC(=S)Nc1cccc(SC)c1	-0.6%	0	-5.8	2	nt	-13%	-1
19	COc1ccccc1CCC(=O)Nc1cccc(S(=O)(=O)N2CCCC2)c1	-0.1%	-8	-0.8	2	8	4%	-27
20	COc1ccc(C2C(Oc3ccccc3)C(=O)N2c2cc(C)ccc2C)cc1OC (centres undefined)	5.4%	-4	-1.0	-19	-7	4%	11

New compounds follow:
no.	structure	PINK1 modulator	Six1-Eya2 inh	D2 agonist	CtBP-E1A inh	TRPV1 potentiator	Sfp inh	D2 PAM
21	O=C(NCc1cccs1)C1CCN(S(=O)(=O)N2CCCC2)CC1	1.8%[38.3 µM]	-1	1.1	-13	-8	8%	-4
22	CSc1cccc(NC(=S)N(CCCN2CCCC(C)C2)Cc2cccs2)c1 (centres undefined)	?	-15	-4.9	-8	9	9%	-39
23	CCN1CCN(CC(O)COC(c2ccccc2)c2ccccc2C)CC1 (centres undefined)	-0.1%	0	0.5	nt	19	?	-9
24	Cc1cc(Cl)ccc1OCCCC(=O)N1CCOCC1	-0.4%	0	-0.6	6	-14	8%	0
25	CC(=O)Nc1ccc(/C=N/NS(=O)(=O)c2cc(C)ccc2C)cc1	-1.5%	-3	-1.7	-1	5	-11%	-6
26	O=C(N/N=C\c1ccc(S(=O)(=O)O)o1)c1ccc2c(c1)OCO2	-1.4%	-4	-2.3	nt	-1	22%	-13
27	O=C(COc1ccccc1)NCCn1ccc2ccccc21	-4.8%[38.3 µM]	-5	2.7	-16	2	9%	-4
28	Cc1ccc(C(=O)Nc2cccc(N3C(=O)C4CCC(C)CC4C3=O)c2)cc1 (centres undefined)	1.6%	0	5.6	-2	-4	18%	1
29	CCN(CC)C(=O)CSC1=C(C#N)C(c2cccs2)C=C(C)N1 (centres undefined)	-1.5%	-8	-2.2	2	-19	50µM*	-21
30	O=C(Nc1cccc(F)c1)c1cc(S(=O)(=O)N2CCOCC2)ccc1N1CCCC1	0.2%	-1	-4.5	nt	-10	nt	-2
31	COc1ccc(CCNC(=O)C2CCN(Cc3nc(-c4ccccc4F)oc3C)CC2)cc1OC	-15%[38.3 µM]	0	-2.1	-15	10	0%	-1
32	Cc1coc2c(C)c3oc(=O)c(CCC(=O)NCCCN4CCCC4=O)c(C)c3cc12	0.2%	-12	-3.5	-21	7	15%	-24
33	CC(Nc1nc(-c2ccccc2O)nc2ccccc12)c1ccccc1 (centres undefined)	27%	8	-2.1	8	9	24%	-1
34	S=C1NCCc2ccc(Cl)cc2C1c1ccccc1 (centres undefined)	6.6%	-23	-3.2	-24	18	14%	-38
35	O=C(Nc1nnc(S(=O)(=O)N2CCCCC2)s1)c1cccc(Br)c1	25%	-1	-8.1	-5	-11	6%	-1
36	COC(=O)[C@]12CCCCC=C1N(Cc1ccc(Cl)cc1Cl)C(=O)[C@H](CC(=O)N1CCN(C(=O)C3CC3)CC1)C2	5.6%	-8	nt	0	nt	nt	nt
37	CCOc1ccc(NC(=O)C(=S)NC2CCCCC2)cc1	2.9%	9	-2.3	7	1	1%	1
38	Cn1c(=O)cc(Cl)[nH]c1=O	6.0%	2	0.7	-1	-1	16%	-6
39	COc1cc(CCC(=O)Nc2ccc(C)c(S(=O)(=O)N(C)C)c2)cc(OC)c1OC	?	-2	3.4	0	14	10%	5
40	CCOC(=O)c1sc2nc(OCCN3CCOCC3)cc(C)c2c1N	0.9%	-15	nt	0	nt	nt	nt

Compound profiles (already shown):
Entry for CCOC(=O)c1sc2nc(OCCN3CCOCC3)cc(C)c2c1N : PINK1 modulator: 0.9%; Six1-Eya2 inh: -15; D2 agonist: nt; CtBP-E1A inh: 0; TRPV1 potentiator: nt; Sfp inh: nt; D2 PAM: nt
Entry for O=C(NCc1cccs1)C1CCN(S(=O)(=O)N2CCCC2)CC1 : PINK1 modulator: 1.8%[38.3 µM]; Six1-Eya2 inh: -1; D2 agonist: 1.1; CtBP-E1A inh: -13; TRPV1 potentiator: -8; Sfp inh: 8%; D2 PAM: -4

Further entries:
no.	structure	PINK1 modulator	Six1-Eya2 inh	D2 agonist	CtBP-E1A inh	TRPV1 potentiator	Sfp inh	D2 PAM
41	Cc1cc(C)cc(N2C(=O)CC(Cn3nc(C)cc3C)C2=O)c1 (centres undefined)	-0.7%	11	0.3	9	6	17%	-2
42	CC(=C\c1ccccc1)/C=C1/SC(=S)N(CCCC(=O)O)C1=O	-1.2%	-14	-1.6	12	-11	-15%	-4
43	CC(C)CCC[C@@H](C)[C@H]1CC[C@H]2[C@@H]3C(=O)C=C4C[C@@H](O)CC[C@]4(C)[C@H]3CC[C@]12C	0.8%	0	2.8	9	15	nt	-14
44	O=C(c1c(Cl)cccc1Cl)N1CCN(c2ncccn2)CC1	1.5%	2	-3.7	6	2	15%	4
45	O=C(Oc1ccc(=O)[nH]n1)c1ccccc1	1.9%	-2	-2.9	32	nt	nt	-5
46	CCOC(=O)C(=Cc1ccc(Br)cc1)C(=O)OCC	-1.7%	-6	-4.8	-11	-21	?	-16
47	COc1ccc(-c2noc(CN(C)CCC3CCCCO3)n2)cc1 (centres undefined)	2.6%	18	-1.8	1	-2	21%	-2
48	Oc1ccc(/C=N/N2CCN(C3c4ccccc4-c4ccccc43)CC2)cc1	2.1%	?	-0.3	-16	nt	12%	-4
49	CCN(CC)S(=O)(=O)c1cc(NC(=O)C(C)N2CCN(c3ccccn3)CC2)ccc1C (centres undefined)	4.0%	-2	4.4	-9	-5	17%	5
50	CCNC(=O)C1(C)CCN(C(=O)c2ccc(OC)c(OC)c2)C1 (centres undefined)	-0.6%	4	-2.5	1	nt	nt	2
51	COc1ccc(N(C)S(=O)(=O)c2cccc(C(=O)NCC(c3ccco3)N3CCCC3)c2)cc1 (centres undefined)	0.3%	-3	-5.5	0	-23	nt	-44
52	Cc1ccc(NC(=O)CN(C)CC(=O)N(CC(C)C)c2c(N)n(CC(C)C)c(=O)[nH]c2=O)c(C)c1	-1.8%	3	7.0	4	-7	nt	-5
53	CCOC(=O)C1(Cc2cccc(OC)c2)CCN(CCO)CC1	-0.6%	6	-0.6	8	-11	12%	-3
54	Cc1onc(-c2c(F)cccc2Cl)c1C(N)=S	0.7%	24	4.6	22	?	14%	-23

An excerpt from above in order of their number in D2 agonist, high to low.
| # | Molecule | PINK1 modulator | Six1-Eya2 inh | D2 agonist | CtBP-E1A inh | Sfp inh | D2 PAM |
| --- | --- | --- | --- | --- | --- | --- | --- |
| 53 | CCOC(=O)C1(Cc2cccc(OC)c2)CCN(CCO)CC1 | -0.6% | 6 | -0.6 | 8 | 12% | -3 |
| 42 | CC(=C\c1ccccc1)/C=C1/SC(=S)N(CCCC(=O)O)C1=O | -1.2% | -14 | -1.6 | 12 | -15% | -4 |
| 46 | CCOC(=O)C(=Cc1ccc(Br)cc1)C(=O)OCC | -1.7% | -6 | -4.8 | -11 | ? | -16 |

Reprinted at random: three compounds from above, in no set order.
no.	structure	PINK1 modulator	Six1-Eya2 inh	D2 agonist	CtBP-E1A inh	TRPV1 potentiator	Sfp inh	D2 PAM
31	COc1ccc(CCNC(=O)C2CCN(Cc3nc(-c4ccccc4F)oc3C)CC2)cc1OC	-15%[38.3 µM]	0	-2.1	-15	10	0%	-1
32	Cc1coc2c(C)c3oc(=O)c(CCC(=O)NCCCN4CCCC4=O)c(C)c3cc12	0.2%	-12	-3.5	-21	7	15%	-24
27	O=C(COc1ccccc1)NCCn1ccc2ccccc21	-4.8%[38.3 µM]	-5	2.7	-16	2	9%	-4

Screening results (PubChem)
